Calb biofilm kill: mixtures killing C. albicans biofilm. C. albicans biofilm persisters + clotrimazole, fluorescence viability; primary screen in compound mixtures of four per well. inhibition, % at 7.6 µM. actives 0.02% (n = 120,000);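 active = inhibition above 30.3% in the primary screen of four-compound pools, then above 30% when the compound was retested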;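 note: compounds exposed to preformed 24 h biofilms for 48 h; the number belongs to the whole pool; some results filed as inactive read as strong as hits; inactives centre near 12; 0% = biofilm with clotrimazole alone and 100% = kill control; retested singly at about 60 µM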
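Incubation: 24 h biofilm formation, then 48 h compound exposure, 37 °C | Material: C. albicans biofilms | Buffer or medium: RPMI/MOPS medium, pH 7.0 | Measured by: 2-h Alamar Blue fluorescence, 535/590 nm excitation/emission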
Starred values were filed as active, the others as inactive.

SMILES	Calb biofilm kill
CC(=O)N/N=C(\N)c1nonc1N	17
COc1ccc(N2CCN(C(=O)CN3CCN(c4nc(-c5ccc(F)cc5)cs4)CC3)CC2)cc1	1
COc1ccccc1-n1nc(C)c(-c2ccccc2)c1N	13
O=C(COc1ccc2oc(-c3ccco3)cc(=O)c2c1)N1CCCCC1	18
O=c1[nH]cnc2c1c(-c1ccccc1)cn2-c1ccc(F)cc1	13
O=C1CCC(=O)N(O)CCCCCNC(=O)CCC(=O)N(O)CCCCNC(=O)CCC(=O)N(O)CCCCCN1	22
Cc1nc(C(=O)NNC(=O)c2c(-c3c(Cl)cccc3Cl)noc2C)cs1	9
FC(F)(F)c1cc(N2CCOCC2)nc(-c2ccccc2)n1	-8
Nc1ccc(O)c2c(=O)cc(-c3ccccc3Cl)oc12	18
NC(=S)N/N=C/c1coc2ccc(O)cc2c1=O	6
N/C(Cc1ccc([N+](=O)[O-])cc1)=N\OC(=O)Cc1ccccc1	22
CC1=CC(=O)[C@H]2C(C)(C)CCC[C@]2(C)[C@@]1(O)CO	6
COC(=O)C1=NN[C@H](C(=O)OC(C)(C)C)[C@H]1c1ccccc1	2
O=C(Nc1ccc2oc(-c3ccccc3)nc2c1)c1cc(-n2cnnc2)ccc1Cl	6
CCN(C(=O)CSc1nnc(Nc2ccccc2)s1)C1CCS(=O)(=O)C1 (stereo unspecified)	-4
S=c1[nH]nc(-c2ccco2)n1/N=C/c1ccc(Cl)cc1	14
COc1cccc(/C=N/NC(=O)CN(C2=NS(=O)(=O)c3ccccc32)c2ccccc2)c1	9
O=C(c1c(F)cccc1F)N1CCCC1	7
COc1ccc(C(CC(=O)O)NC(=O)COc2cc(C)ccc2C)cc1OC (stereo unspecified)	6
CCOC(=O)C(=NCC1CCCO1)NNc1ccccc1Cl (stereo unspecified)	8
Oc1ccc(/C=N/N2CCOCC2)c(O)c1O	10
O=C(CNC(=O)c1cccs1)OCC(=O)c1ccc([N+](=O)[O-])cc1	14
Cc1nnn(-c2nonc2N)c1C(=O)NNC(=O)c1ccc(Cl)c(Cl)c1	12
CC1(C)CC2CC(C)(CN2Cc2c(O)ccc3ccccc23)C1 (stereo unspecified)	8
CCCCCC1(C)NC(=S)N(c2ccccc2)N1 (stereo unspecified)	21
O=C(CSc1nc(-c2ccccc2)cc(C(F)(F)F)n1)c1cccc([N+](=O)[O-])c1	-1
O=C1[C@@H]2CSCN2C(=O)CN1Cc1ccc(F)cc1	15
O=C(COC(=O)c1cc(-c2cccs2)nn1-c1ccccc1)Nc1cc([N+](=O)[O-])ccc1Cl	22
CCn1ncc([C@@H]2C[C@H]3CN(Cc4ccccc4C)C(=O)[C@]34CCCN24)c1C	4
CCn1nnnc1SCC(=O)Nc1cc(C)on1	5
CCOc1ccc(NC(C(=O)Nc2cccc(C(C)=O)c2)c2ccccc2)cc1 (stereo unspecified)	21
CCc1ccc(Oc2ncnc(N)c2[N+](=O)[O-])cc1	21
COc1ccc(NC(=O)COC(=O)/C=C/c2ccc(OC)c(S(=O)(=O)N3CCOCC3)c2)cc1	1
Cc1cccc(C(C)C)c1NC(=O)c1ccc(COc2ccc3c(C)cc(=O)oc3c2)cc1	9
S=C(Nc1ccccc1Cl)N(CCN1CCCCC1)Cc1ccco1	12
Cc1cc(NC(=O)CN2CCc3ccccc3C2)nc2c1c(=O)oc1ccccc12	18
COc1ccc(OCCSc2nnc(C)n2-c2ccccc2)cc1	3
O=C(NCc1ccccc1)C(=O)Nc1nccs1	-7
O=C(COc1ccc(C2SCCS2)cc1)NNC(=O)C(Cl)Cl	-1
COCCN(C(=O)CSc1ncc(C(F)(F)F)cc1Cl)c1c(N)n(Cc2ccccc2)c(=O)[nH]c1=O	9

In the list so far, these contain an NH in an aromatic ring.
SMILES	Calb biofilm kill
O=c1[nH]cnc2c1c(-c1ccccc1)cn2-c1ccc(F)cc1	13
S=c1[nH]nc(-c2ccco2)n1/N=C/c1ccc(Cl)cc1	14
COCCN(C(=O)CSc1ncc(C(F)(F)F)cc1Cl)c1c(N)n(Cc2ccccc2)c(=O)[nH]c1=O	9

A draw from above in order of heavy-atom count, largest number first:
SMILES	Calb biofilm kill
COc1ccc(NC(=O)COC(=O)/C=C/c2ccc(OC)c(S(=O)(=O)N3CCOCC3)c2)cc1	1
O=C(CSc1nc(-c2ccccc2)cc(C(F)(F)F)n1)c1cccc([N+](=O)[O-])c1	-1
COc1ccc(OCCSc2nnc(C)n2-c2ccccc2)cc1	3

The listing continues:
SMILES	Calb biofilm kill
CC1(C)NC(=O)N(CC(=O)OCC(=O)Nc2cccc(S(N)(=O)=O)c2)C1=O	16
Cc1ccc(C(=O)NC(=S)Nc2ccc(N3CCOCC3)cc2)cc1C	6
Clc1cncc(Cl)c1N/N=C/c1ccccc1	22
COc1ccccc1-n1cnnc1SCC(=O)Nc1cccnc1Cl	6
O=C(N/N=C(/CC(=O)c1cccs1)C(F)(F)F)c1ccc(O)cc1	13
Cc1cc(=O)[nH]c(SCC(=O)NCC2CCCO2)n1 (stereo unspecified)	23
Cc1nn(-c2ccccc2)c(Cl)c1/C=N/N1CCN(c2ccccn2)CC1	25
O=C(NC(=S)Nc1ccc2oc(-c3ccncc3)nc2c1)c1ccccc1F	7
Cc1cc(C)c(NC(=O)COc2nc3ccccc3nc2C)c(C)c1	11
S=c1[nH]nc(Cc2ccccc2)n1-c1ccc(Cl)cc1	9
C1CC(CN2CCOCC2)CN(c2nc3nonc3nc2N2CCSCC2)C1 (stereo unspecified)	25
COc1ccccc1/C=C/C=N/n1c(-c2ccccn2)n[nH]c1=S	11
CCNC(=O)CSc1nnc(-c2cc(-c3ccc(Cl)cc3)nc3ccccc23)o1	16
C/C(=N\NC(=O)CC1(C)OCCO1)c1cccs1	4
O=C(CSc1ncn[nH]1)Nc1ccc([N+](=O)[O-])cc1Br	-15
O=C(Nc1ccccc1)c1csc(-c2ccccc2)n1	13
C=CCNC(=S)Nc1c(N)n(C)c(=O)n(C)c1=O	5
COc1ccc(-c2nc(CN3CCN(c4cc(C)nc(C)c4)CC3)c(C)o2)c2ccccc12	16
CCOc1ccc(C(=O)Nc2ccc(Cc3ccncc3)cc2)cc1Br	10
Cc1ccc(NC(=O)c2cccnc2C(=O)Nc2ccc(C)cc2)cc1	-4
COc1cccc(CNS(=O)(=O)c2ccc3c(c2)CCN3C(=O)C2CC2)c1	-2
CCOC(=O)c1c2ccc(OCC(=O)NN)cc2n2ccccc12	15
CCN(C(=O)c1cc2c(=O)[nH]c3ccc(C)cc3c2s1)c1ccc(OC)cc1	31
CCCCCCCC(=O)N/N=C(\C)c1ccc(N)cc1	8
Cn1c(N)c(-c2nc3cccnc3n2C)sc1=S	15
Cc1cccc(C)c1NC(=O)CN	5
O=C(NCCCN1CCOCC1)c1ccc(Br)cc1Br	5
CCOC(=O)c1ccc2c(c1)n(CCCS(=O)(=O)[O-])c(/C=C/c1ccc(Cl)cc1)[n+]2CC	23
CN(Cc1nc2ccccc2c(=O)[nH]1)Cc1nc2ccsc2c(=O)[nH]1	-2
Cn1c(=O)[nH]c(=O)c2c1nc(CN1CCN(c3ccccc3F)CC1)n2CCCc1ccccc1	9
COc1ccc(NC(=O)C(Cc2ccccc2)n2cccc2)cc1 (stereo unspecified)	21
COc1ccc(CNC(=O)Nc2ccc(C)cc2C)cc1	16
O=C(Cn1cncn1)N/N=C/c1cccc(Cl)c1	10
CC(C)NC(=O)CC(=O)N/N=C\c1ccccc1C(=O)O	23
CCN(CC)S(=O)(=O)c1ccc(N2CCOCC2)c(NC(=O)COc2ccccc2)c1	15
O=C(NCCCO)NC(=S)c1cccc2ccccc12	10
c1ccc(-c2nc(N3CCCC3)nc3ccccc23)cc1	6
CCOC(=O)c1c(C)[nH]c(C=O)c1Cc1cccc(Cl)c1	10
CCCc1nc2ccc(NC(=O)c3cccs3)cc2c(=O)n1Cc1ccc(Cl)cc1	18
O=C1CC[C@@H](CN(Cc2ccccn2)Cc2nc(Cc3cccc(C(F)(F)F)c3)no2)N1	14
COc1cccc(CC(NC(C)=O)C(=O)NC2CCN(S(=O)(=O)c3ccc(C)cc3)CC2)c1OC (stereo unspecified)	20
O=C1SC(SCc2ccccc2)=N/C1=C\c1ccc(C(=O)O)cc1	33
Fc1cccc(CCN2C(=S)NC[C@@H]2CC2CCCCC2)c1	9
Cc1cc(C)c(OCCNC(=O)c2ccccc2Sc2ccccc2C#N)c(C)c1	-10
CCCC(=O)Nc1c(-c2ccccc2)c(=O)c(C)nn1-c1ccc(C)cc1	22
CCn1cc(S(=O)(=O)Nc2cc(F)ccc2C)cn1	13
Cc1cc(C(=O)NNc2ccc(C(C)C)cc2)n(C(C)(C)C)n1	3
CCOc1ccc(CC(=O)Nc2cccc(-c3ccc4nnc(C)n4n3)c2)cc1	15
O=C1CSC(c2ccccc2)N1CC(O)c1ccc([N+](=O)[O-])cc1 (stereo unspecified)	25
C[C@H](NC(=O)c1ccccc1)C(=O)Nc1nc(-c2ccccn2)cs1	12
CCCC(=O)Nc1c(-c2ccccc2OC)c(=O)c2ccccc2n1C	16
C[C@@H](C(=O)O)[C@H]1C[C@]1(C)[C@H](NC(=O)OCc1ccccc1)c1ccccc1	-2
O=C(NC(=S)N1CCOCC1)C12CCC3CC(CC(C3)C1)C2	16
CCc1ccc(C(=O)NNc2ccc(F)cc2F)cc1	21
COC(=O)c1ccc2nc(-c3ccc4c(c3)OCO4)cn2c1	12
Cc1ccc(C)c(NC(=O)COc2cccc3c2CCN(Cc2ccccc2C)C3=O)c1	9
O=C(CSc1nccc(-c2cccs2)n1)Nc1ccc(Cl)cc1	12
C/C=C(/C)C(=O)O[C@@H]1[C@H](OC(=O)C=C(C)C)c2c(ccc3ccc(=O)oc23)OC1(C)C	29
O=C(NC1CCCCC1)C(=S)N1CCOCC1	-7
CC(Oc1ccccc1)C(=O)N1CCN=C1SCc1ccccc1 (stereo unspecified)	3

Compounds listed so far containing fluorine, in the order listed:
SMILES	Calb biofilm kill
COc1ccc(N2CCN(C(=O)CN3CCN(c4nc(-c5ccc(F)cc5)cs4)CC3)CC2)cc1	1
O=c1[nH]cnc2c1c(-c1ccccc1)cn2-c1ccc(F)cc1	13
FC(F)(F)c1cc(N2CCOCC2)nc(-c2ccccc2)n1	-8
O=C(c1c(F)cccc1F)N1CCCC1	7
O=C(CSc1nc(-c2ccccc2)cc(C(F)(F)F)n1)c1cccc([N+](=O)[O-])c1	-1
O=C1[C@@H]2CSCN2C(=O)CN1Cc1ccc(F)cc1	15
COCCN(C(=O)CSc1ncc(C(F)(F)F)cc1Cl)c1c(N)n(Cc2ccccc2)c(=O)[nH]c1=O	9
O=C(N/N=C(/CC(=O)c1cccs1)C(F)(F)F)c1ccc(O)cc1	13
O=C(NC(=S)Nc1ccc2oc(-c3ccncc3)nc2c1)c1ccccc1F	7
Cn1c(=O)[nH]c(=O)c2c1nc(CN1CCN(c3ccccc3F)CC1)n2CCCc1ccccc1	9
O=C1CC[C@@H](CN(Cc2ccccn2)Cc2nc(Cc3cccc(C(F)(F)F)c3)no2)N1	14
Fc1cccc(CCN2C(=S)NC[C@@H]2CC2CCCCC2)c1	9
CCn1cc(S(=O)(=O)Nc2cc(F)ccc2C)cn1	13
CCc1ccc(C(=O)NNc2ccc(F)cc2F)cc1	21

Following part
SMILES	Calb biofilm kill
CCCCNC(=O)c1cc([N+](=O)[O-])[nH]n1	12
CCOc1ccccc1NC(=O)C(NCC1CCCCC1)c1ccccc1 (stereo unspecified)	9
O=C(O)c1nccnc1C(=O)Nc1ccccc1N1CCOCC1	27
CCOC(=O)N1CCN(S(=O)(=O)c2ccc(F)c(C(=O)Nc3cccc(Cl)c3C)c2)CC1	5
COc1cc(/C=N/NC(=O)c2cc3ccccc3cc2O)ccc1OCCN1CCCCC1	19
CN(C)S(=O)(=O)c1ccc(C(=O)OCC(=O)c2ccc3c(c2)NC(=O)CO3)cc1	19
O=C1C(Cc2ccc3[nH]ccc3c2)NC(=S)N1c1ccccc1 (stereo unspecified)	20
COc1ccc2oc(=O)c(C(=O)C[n+]3cccc(C)c3)cc2c1	12
C/C(=N\Nc1ccc(Cl)c(C(=O)O)c1)c1cccc([N+](=O)[O-])c1	8
Cc1ccccc1C(=O)NN1C(=O)CSC1=S	21
Cc1scc(-c2n[nH]c(=S)n2C(C)c2ccccc2)c1C (stereo unspecified)	10
COc1ccc(-c2nnn(CC(=O)N(CC(=O)NC3CCCC3)c3ccccc3)n2)cc1OC	11
Cc1nnc(SCC(=O)Nc2ccccc2F)n1Cc1ccco1	14
COc1cccc(C2=NCCc3cc4c(cc32)OCO4)c1OC	8
COc1ccc(CNC(=O)COc2ccc(C)nc2[N+](=O)[O-])cc1	13
Cc1cc2nc(C3CCN(C(=S)NCCCOC(C)C)CC3)[nH]c2cc1C	2
COC(=O)CC1C(=O)NCCN1C(=S)NC(=O)c1sc2ccccc2c1Cl (stereo unspecified)	11
O=C(c1ccco1)N1N=C(c2ccc(Br)cc2)CC1(O)C(F)(F)F (stereo unspecified)	18
CCOC(=O)C1CCN(C(=O)Nc2ccc3nccnc3c2)CC1	15
CC1(C)CNC(=O)CC(C)(C)N1	15
COc1ccccc1/C=C\C=N\n1c(-c2ccc(Cl)cc2)n[nH]c1=S	14
CC(C)NS(=O)(=O)c1ccc2c(c1)NCC2	7
O=C(N/N=C/c1ccc(OCc2ccc(F)cc2)cc1)c1ccccc1	17
CCC(C)c1ccccc1OCCn1ccnc1 (stereo unspecified)	10
S=C(Nc1ccc2c(c1)OCCO2)Nc1ccc2c(c1)OCO2	8
Cc1cc(C)c(S(=O)(=O)N2CCN(C(=O)N(C)C)CC2)c(C)c1	3
O=C(C[n+]1ccccc1)N/N=C/c1ccco1	25
O=c1[nH]c(SCc2ccccc2)nnc1-c1ccccc1	5
C#CCOCCOCCOCCNc1nc(N2CCN(C(=O)[C@H](CCCCN)n3cc(C(N)COC(=O)C(F)(F)F)nn3)CC2)nc(N2CCN(C(=O)[C@H](CCCCN)n3cc(C(N)CC(C)C)nn3)CC2)n1 (stereo partly specified)	3
CC(=O)Nc1ccc(S(=O)(=O)N=S(C)C)cc1	18
Cc1c(O)cc2n(c1=O)-c1ccc(Cl)cc1C2(C)C	-2

This is a subset, so the mix of outcomes need not match the whole.
